Six1-Eya2 blk: inhibitors of human Six1/Eya2 interaction. Q15475+O00167. AlphaScreen GST-Six1/His-Eya2 binding, biochemical; active compounds read low; control for the full effect not named in the record. activity change, % (concentration not given with the values). 360,000 tested, 0.56% active. AID 651725; in the data active = activity change below about -65%; inconclusive = about -30% to -65%; inactive = above about -30%; further: on the % scale 0 is the no-effect control and ±100 the full control effect
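AlphaScreen with GST-Six1 and His-Eya2 (5X mix: 250 nM and 500 nM), glutathione donor and nickel acceptor beads; buffer 50 mM Tris pH 8.0, 300 mM NaCl, 1 mM TCEP; 1 h at 37 C in the dark.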
D2 potentiator: positive allosteric modulators of human D2 dopamine receptor. potentiation, % (concentration not given with the values). P14416. 360,000 tested, 0.23% active. DiscoveRx D2 beta-arrestin cells, luminescence, 90 min; 100% = 57 uM dopamine signal; active = potentiation of 50% or more; inconclusive = 30% to 50%; inactive = 30% or less;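 further: compound concentration not given in the record; tested on top of an EC20 dose of dopamine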
Target sequence (P14416 whole entry, looked up): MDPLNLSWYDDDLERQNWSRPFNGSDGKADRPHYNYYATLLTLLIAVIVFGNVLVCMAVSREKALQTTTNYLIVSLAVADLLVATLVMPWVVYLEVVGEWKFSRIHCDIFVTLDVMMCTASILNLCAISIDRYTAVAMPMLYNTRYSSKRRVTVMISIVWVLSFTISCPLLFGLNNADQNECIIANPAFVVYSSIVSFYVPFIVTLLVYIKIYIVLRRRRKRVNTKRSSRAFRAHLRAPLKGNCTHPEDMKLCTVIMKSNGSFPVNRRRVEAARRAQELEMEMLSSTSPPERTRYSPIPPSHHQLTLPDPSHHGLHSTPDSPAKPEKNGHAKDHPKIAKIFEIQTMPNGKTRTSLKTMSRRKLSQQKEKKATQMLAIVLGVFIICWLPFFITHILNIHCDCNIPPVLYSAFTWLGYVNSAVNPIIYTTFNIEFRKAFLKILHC
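PathHunter D2 cells, attached overnight at 37 deg C, received compound in DMSO plus dopamine at EC20 (50 nM final) for 90 min at 37 deg C. Beta-arrestin recruitment was read as luminescence after 1 h with detection reagent at ambient temperature.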
CtBP-E1A blk: CtBP/E1A binding inhibition. AlphaScreen GST-E1A/His-CtBP binding, 1536-well; active compounds read low; control for the full effect not named in the record. activity change, % (test concentration not listed). 340,000 tested, 0.49% active; in the data active means activity change below about -65%; inconclusive means about -30% to -65%; inactive means above about -30%; further: on the % scale 0 is the no-effect control and ±100 the full control effect
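GST-E1A and His-tagged CtBP (125 nM each as 5X stock) were preincubated with pin-transferred compound for 2 h at 37 °C in the dark, then glutathione donor and nickel acceptor beads were added for 1 h before AlphaScreen reading.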
gsp antag: antagonists of gsp mutant (McCune-Albright syndrome); gsp-mutant cells, cAMP HTRF, 30 min; control for the full effect not named in the record; Potency, µM (doses to about 76.9 µM), for the others: at the top dose activity change, negative = inhibition, hits mostly inhibitors; 340,000 tested, 0.4% active; AID 624288; active = falling curve of any shape with a large fitted effect; inconclusive = falling curve, mostly with a smaller effect; inactive = flat or rising curve; cell line not stated here;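 further: intracellular cAMP measured with PDE inhibitor Ro 20-1724 present during compound exposure; potency means the concentration at half of the fitted maximal effect; on the % scale 0 is the no-effect control and ±100 the full control effect; nearly all actives have a fitted effect of over 65% in size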
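Cells in G418 medium, seeded 16-24 h, 37C; buffer exchange to DPBS + 1 mM CaCl2, 0.5 mM MgCl2, 0.05% BSA; cpds in DMSO + […] (300 uM stock), 30 min 37C; HTRF cAMP detection.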
gsp ag: gsp mutant agonism. AID 624287. Potency, µM (titrated, usually from 76.9 µM), for inactives: top-dose activation (cAMP increase), hits mostly activators. 340,000 tested, 0.13% active. gsp mutant cells, cAMP HTRF, 30 min; control for the full effect not named in the record; active = well fitted activation curve with a large enough effect; inconclusive = small, poorly fitted or top-dose-only effect, or another doubt; inactive = no such curve, though single readings can be large or run the other way; cell line not stated here;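 further: phosphodiesterase inhibitor Ro 20-1724 added with compounds to block cAMP breakdown; potency means the concentration at half of the fitted maximal effect; nearly all actives have a fitted effect of over 60% in size; about a fifth of the inactives were tested at one dose only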
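Cells in DMEM/10% FBS with G418 were pretreated with compounds in DMSO plus […] (300 uM stock) for 30 min at 37C. cAMP was measured by HTRF (cAMP-d2 plus anti-cAMP antibody-K) after 30 min at room temperature.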
D2 ag: human D2 receptor agonism in beta-arrestin assay; P14416; DiscoveRx PathHunter D2 beta-arrestin, luminescence, 90 min; 100% = 57 uM dopamine signal; activation, % (no concentration beside the values); 360,000 tested, 0.084% active; AID 624465; in the data active = activation above about 40%; inconclusive = about 15% to 40%; inactive = below about 15%; further: compound concentration not given in the record; the text of the record calls up to 30% inactive
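Agonist mode: compounds alone added to overnight-plated D2 PathHunter cells for 90 min at 37 C, with 57 uM final dopamine (EC100) defining full response. Beta-arrestin recruitment detected by chemiluminescent reagent, read after 1 h at ambient temperature.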
* marks the source's active call; other numbers are inactive results; [ ] = dose if it differs, or a comment. Random draw from the library. Share with any hit: about 1.4%.

What do the screens show for `O=C(CCc1nnc(C2CCCCC2)o1)N1CCCCC1CCn1cccn1` (stereo not drawn)?
Six1-Eya2 blk: -1; D2 potentiator: -12; CtBP-E1A blk: 5; gsp antag: 1%; gsp ag: 3%[15.4 µM]; D2 ag: 2.8

What do the screens show for `Cc1ccc(O)c(-c2cc(C(=O)Nc3c(C)n(C)n(-c4ccccc4)c3=O)[nH]n2)c1`?
Six1-Eya2 blk: -1; D2 potentiator: -5; CtBP-E1A blk: -2; gsp antag: 3%; gsp ag: 19%; D2 ag: 1.8

What do the screens show for `CC(=O)Nc1ccccc1C(=O)C(=O)Nc1ccc(Cl)cc1`?
Six1-Eya2 blk: 0; D2 potentiator: -4; CtBP-E1A blk: 3; gsp antag: 9%; gsp ag: 10%[15.4 µM]; D2 ag: -7.8

Results for CC1CCCN(CCOc2ccc3ccccc3c2Br)C1 (stereo not drawn) ?
Six1-Eya2 blk: -2; D2 potentiator: -12; CtBP-E1A blk: -6; gsp antag: 14%; gsp ag: 26%[15.4 µM]; D2 ag: -3.5

What do the screens show for `O=C1CC(N(O)C2CC(=O)N(Cc3ccccc3)C2=O)C(=O)N1Cc1ccccc1` (stereo not drawn)?
Six1-Eya2 blk: 1; D2 potentiator: 3; CtBP-E1A blk: 10; gsp antag: -1%; gsp ag: -13%; D2 ag: -0.7

Results for CCOC(=O)C1=C(C)N(CCCCCC(=O)O)C(=O)NC1c1ccc(Cl)cc1 (stereo not drawn) ?
Six1-Eya2 blk: 0; D2 potentiator: 1; CtBP-E1A blk: 2; gsp antag: -15%; gsp ag: 4%; D2 ag: -5.5

What do the screens show for `Cc1cc(Br)ccc1NC(=O)c1sc2ncnc(N3CCN(c4ccccn4)CC3)c2c1C`?
Six1-Eya2 blk: 10; D2 potentiator: -10; CtBP-E1A blk: -5; gsp antag: -6%; gsp ag: -12%; D2 ag: 2.7

What do the screens show for `CCn1c(SCc2cccc(F)c2)nnc1-c1cccnc1`?
Six1-Eya2 blk: -5; D2 potentiator: -3; CtBP-E1A blk: 0; gsp antag: 5%; gsp ag: -1%[15.4 µM]; D2 ag: -6.3

Results for COc1ccc(-c2cc(C)no2)cc1S(=O)(=O)N(C)Cc1ccco1 ?
Six1-Eya2 blk: -4; D2 potentiator: -7; gsp antag: -8%; gsp ag: -64%[inhibitor]; D2 ag: -0.8

How did COc1ccc(-c2n[nH]c(C)c2-c2cnn(-c3ccccc3)c2)c(O)c1 do in these assays?
Six1-Eya2 blk: -13; D2 potentiator: 2; CtBP-E1A blk: -8; gsp antag: -5%; gsp ag: -24%; D2 ag: 3.1

How did CCOc1ccc(NC(=O)c2ccc(S(=O)(=O)N(C)C)cc2)cc1 do in these assays?
Six1-Eya2 blk: -4; D2 potentiator: -2; CtBP-E1A blk: -1; gsp antag: 0%; gsp ag: -41%[inhibitor]; D2 ag: -5.5

How did COc1ccc(OC)c(/C=C/C(=O)N(C)CC(=O)Nc2cc(C)ccc2C)c1 do in these assays?
Six1-Eya2 blk: 2; D2 potentiator: -14; CtBP-E1A blk: -2; gsp antag: 15%; gsp ag: 5%[15.4 µM]; D2 ag: -5.3

How did CC(C)c1ccc(N(CC(=O)NN=C2CCN(C)CC2)S(=O)(=O)c2ccccc2)cc1 do in these assays?
Six1-Eya2 blk: 9; D2 potentiator: -14; CtBP-E1A blk: -21; gsp ag: 5%[15.4 µM]; D2 ag: -3.8

Results for Nc1cc(Cl)ccc1C(=O)OCC(=O)NC1CCS(=O)(=O)C1 (stereo not drawn) ?
Six1-Eya2 blk: 8; D2 potentiator: 3; CtBP-E1A blk: 2; gsp antag: 22%; gsp ag: 22%; D2 ag: 0.5

What do the screens show for `CC1(C)OC(c2ccccc2)=C/C(=C/C=C2C(=O)c3ccccc3C2=O)O1`?
Six1-Eya2 blk: -12; D2 potentiator: -4; CtBP-E1A blk: -8; gsp antag: -1%; gsp ag: 1%; D2 ag: 0.0

How did O=C(CN1C2=NCCN2c2ccccc21)C12CC3CC(CC(C3)C1)C2 do in these assays?
Six1-Eya2 blk: -4; D2 potentiator: -14; CtBP-E1A blk: -1; gsp antag: 13%; gsp ag: 7%; D2 ag: -3.2

What do the screens show for `COc1ccc([N+](=O)[O-])cc1CSc1nnc(NC(C)=O)s1`?
Six1-Eya2 blk: -12; D2 potentiator: -6; CtBP-E1A blk: -6; gsp antag: 4%; gsp ag: -3%[15.4 µM]; D2 ag: 1.4

How did CC1(C)CC(=O)C=C(NCCN2CCN(C(=S)Nc3ccc(F)cc3)CC2)C1 do in these assays?
Six1-Eya2 blk: -1; D2 potentiator: -18; CtBP-E1A blk: 1; gsp antag: 7%; gsp ag: 0%[15.4 µM]; D2 ag: -1.5

How did COc1ccc(/C(C)=N/NC(=O)CNC(=O)CCc2ccccc2)c(OC)c1 do in these assays?
Six1-Eya2 blk: -15; D2 potentiator: -6; CtBP-E1A blk: 2; gsp antag: -2%; gsp ag: 11%[15.4 µM]; D2 ag: -0.7

Results for CCN(CC)S(=O)(=O)c1ccc(NC(=O)c2cccs2)cc1 ?
Six1-Eya2 blk: -2; D2 potentiator: -8; CtBP-E1A blk: -4; gsp antag: -7%; gsp ag: -1%[15.4 µM]; D2 ag: -4.2

Results for COc1ccccc1NC(=O)c1cc(-c2ccc(C)o2)nc2ccccc12 ?
Six1-Eya2 blk: -2; D2 potentiator: -34; CtBP-E1A blk: 6; gsp ag: 7%[15.4 µM]; D2 ag: -0.6

Results for CC1CC(C)CN(S(=O)(=O)c2cc3c4c(c2)C(C)C(=O)N4CCC3)C1 (stereo not drawn) ?
Six1-Eya2 blk: -4; D2 potentiator: -3; CtBP-E1A blk: -4; gsp antag: -2%; gsp ag: -32%; D2 ag: -3.0

What do the screens show for `Cc1ccccc1OCC(=O)Nc1nnc(-c2ccncc2)s1`?
Six1-Eya2 blk: -9; D2 potentiator: 5; CtBP-E1A blk: 0; gsp antag: -13%; gsp ag: inconclusive; D2 ag: 3.0

Results for CCOC(=O)N1CCN(C(=O)/C(=C\c2cccs2)NC(=O)c2cccs2)CC1 ?
Six1-Eya2 blk: 6; D2 potentiator: -1; CtBP-E1A blk: 13; gsp antag: 8%; gsp ag: 7%; D2 ag: 1.0

What do the screens show for `CCOc1ccc(N(CC(=O)Nc2cccnc2)S(=O)(=O)c2ccc(C)cc2)cc1`?
Six1-Eya2 blk: 16; D2 potentiator: -17; CtBP-E1A blk: 5; gsp antag: inconclusive; gsp ag: 13%[15.4 µM]; D2 ag: -7.1

What do the screens show for `COc1ccccc1-n1c(SCC(=O)Nc2cccc(S(N)(=O)=O)c2)nc2ccccc2c1=O`?
Six1-Eya2 blk: 4; D2 potentiator: -24; CtBP-E1A blk: 0; gsp ag: 3%[15.4 µM]; D2 ag: 0.4

What do the screens show for `CCOc1ccc(C(=O)C[n+]2cccc3cc(C)ccc32)cc1`?
Six1-Eya2 blk: 4; D2 potentiator: -13; CtBP-E1A blk: 0; gsp antag: -6%; gsp ag: -55%[inhibitor]; D2 ag: 0.8

How did Cc1oc2ncnc(N)c2c1C do in these assays?
Six1-Eya2 blk: -12; D2 potentiator: -9; CtBP-E1A blk: -16; gsp antag: -2%; gsp ag: inconclusive; D2 ag: -5.1

Results for CCc1ccc(NC(=O)[C@H](C)NC(=O)C2CCN(C(=O)[C@@H](N)C(C)C)CC2)cc1 ?
Six1-Eya2 blk: 4; D2 potentiator: 0; gsp antag: 6%; gsp ag: 24%; D2 ag: -1.4

What do the screens show for `CCCCOC(=O)C1=C(C)NC(=O)NC1c1ccc2c(c1)OCO2` (stereo not drawn)?
Six1-Eya2 blk: -8; D2 potentiator: 1; CtBP-E1A blk: 6; gsp antag: -13%; gsp ag: -29%; D2 ag: -3.5

Results for CN(C)c1ccc(/C=C/CNC[C@H]2O[C@@H](n3ccc(N)nc3=O)[C@H](O)[C@@H]2O)cc1 ?
Six1-Eya2 blk: 13; CtBP-E1A blk: -18; gsp ag: 6%; D2 ag: -2.5

Results for CCOCCCNS(=O)(=O)c1ccc(NC(=O)c2ccc(OC)c([N+](=O)[O-])c2)cc1 ?
Six1-Eya2 blk: -2; D2 potentiator: -1; CtBP-E1A blk: 7; gsp antag: -1%; gsp ag: 6%[15.4 µM]; D2 ag: -3.5

How did N#Cc1c(N)nc2c(c1-c1ccco1)CCCCC2 do in these assays?
Six1-Eya2 blk: -9; D2 potentiator: 2; CtBP-E1A blk: -5; gsp antag: -8%; gsp ag: -11%; D2 ag: -1.9

How did Cc1ccc(SCC(=O)NN=C2CCN(C)CC2)cc1 do in these assays?
Six1-Eya2 blk: 3; D2 potentiator: 3; CtBP-E1A blk: 5; gsp antag: -4%; gsp ag: 15%; D2 ag: 5.6

What do the screens show for `O=C(CSC1=NCCS1)Nc1cccc2ccccc12`?
Six1-Eya2 blk: -9; D2 potentiator: -5; CtBP-E1A blk: -2; gsp antag: 5%; gsp ag: 3%; D2 ag: -10

How did FC(F)(F)c1ccccc1Cc1c(-c2cccc(Br)c2)nc2c3ccccc3ccn12 do in these assays?
Six1-Eya2 blk: 17; D2 potentiator: -8; CtBP-E1A blk: 19; D2 ag: -1.1

How did Cc1ccc(-c2cc(-c3ccc(F)cc3)nc(N)c2C#N)o1 do in these assays?
Six1-Eya2 blk: 11; D2 potentiator: -29; CtBP-E1A blk: 13; gsp antag: 3%[15.4 µM]; gsp ag: 19%; D2 ag: -1.3

Results for CCOc1c2ccc(C(=O)NC3CCCc4ccccc43)cc2nn1CC (stereo not drawn) ?
Six1-Eya2 blk: 3; D2 potentiator: -7; CtBP-E1A blk: 0; gsp antag: -5%; D2 ag: -1.9

Grouped by structure: those above with a Cl atom.
What do the screens show for `CC(=O)Nc1ccccc1C(=O)C(=O)Nc1ccc(Cl)cc1`?
Six1-Eya2 blk: 0; D2 potentiator: -4; CtBP-E1A blk: 3; gsp antag: 9%; gsp ag: 10%[15.4 µM]; D2 ag: -7.8

Results for CCOC(=O)C1=C(C)N(CCCCCC(=O)O)C(=O)NC1c1ccc(Cl)cc1 (stereo not drawn) ?
Six1-Eya2 blk: 0; D2 potentiator: 1; CtBP-E1A blk: 2; gsp antag: -15%; gsp ag: 4%; D2 ag: -5.5

Results for Nc1cc(Cl)ccc1C(=O)OCC(=O)NC1CCS(=O)(=O)C1 (stereo not drawn) ?
Six1-Eya2 blk: 8; D2 potentiator: 3; CtBP-E1A blk: 2; gsp antag: 22%; gsp ag: 22%; D2 ag: 0.5

Random excerpt: two entries already listed.
Results for CCOCCCNS(=O)(=O)c1ccc(NC(=O)c2ccc(OC)c([N+](=O)[O-])c2)cc1 ?
Six1-Eya2 blk: -2; D2 potentiator: -1; CtBP-E1A blk: 7; gsp antag: -1%; gsp ag: 6%[15.4 µM]; D2 ag: -3.5

What do the screens show for `CCCCOC(=O)C1=C(C)NC(=O)NC1c1ccc2c(c1)OCO2` (stereo not drawn)?
Six1-Eya2 blk: -8; D2 potentiator: 1; CtBP-E1A blk: 6; gsp antag: -13%; gsp ag: -29%; D2 ag: -3.5

Source: PubChem BioAssay
